D2 ag: Beta-Arrestin HTS for Positive Allosteric Modulators of the Human D2 Dopamine Receptor: Agonists | D(2) dopamine receptor (Homo sapiens), P14416 | DiscoveRx PathHunter D2 beta-arrestin, luminescence, 90 min; 100% = 57 uM dopamine signal | activation, % (no concentration beside the values) | hit rate 0.084% among 360,000; in the data active = activation above about 40%; inconclusive = about 15% to 40%; inactive = below about 15%; also: compound concentration not given in the record; the text of the record calls up to 30% inactive
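DiscoveRx PathHunter D2 beta-arrestin cells (2,100/well) attached overnight, then compound-stimulated 90 min at 37 C in HBSS/10 mM HEPES/0.1% Tween-20 buffer; beta-galactosidase complementation read by luminescence after 1 h at ambient temperature. Dopamine 57 uM final (EC100) as control.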
CtBP-E1A inh: qHTS Assay for Inhibitors of the CtBP/E1A Interaction. CtBP / adenovirus E1A interaction (AlphaScreen). AID 651724, 2012. activity change, % (test concentration not listed). hit rate 0.49% among 340,000. AlphaScreen GST-E1A/His-CtBP binding, 1536-well; stronger effect = lower value; control for the full effect not named in the record; in the data active means activity change below about -65%; inconclusive means about -30% to -65%; inactive means above about -30%; also: % is scaled to controls: 0 for no effect and ±100 for the full control effect; compound concentration not given in the record
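Steps: dispense buffer (Tris pH 8.0, NaCl 300 mM, TCEP 1 mM, BSA, Tween 20); add 5X protein mix (GST-E1A, His-CtBP, 125 nM each); pin 23 nL compound; 2 h at 37 °C, dark; add 5X beads (50 ug/mL); 1 h; read.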
Six1-Eya2 inh: qHTS Assay for Inhibitors of the Six1/Eya2 Interaction | activity change, % (no concentration beside the values) | AlphaScreen GST-Six1/His-Eya2 binding, biochemical; stronger effect = lower value; control for the full effect not named in the record | AID 651725, 2012 | hit rate 0.56% among 360,000; in the data active = activity change below about -65%; inconclusive = about -30% to -65%; inactive = above about -30%; also: % is scaled to controls: 0 for no effect and ±100 for the full control effect; compound concentration not given in the record
Target sequence (O00167 whole entry, looked up): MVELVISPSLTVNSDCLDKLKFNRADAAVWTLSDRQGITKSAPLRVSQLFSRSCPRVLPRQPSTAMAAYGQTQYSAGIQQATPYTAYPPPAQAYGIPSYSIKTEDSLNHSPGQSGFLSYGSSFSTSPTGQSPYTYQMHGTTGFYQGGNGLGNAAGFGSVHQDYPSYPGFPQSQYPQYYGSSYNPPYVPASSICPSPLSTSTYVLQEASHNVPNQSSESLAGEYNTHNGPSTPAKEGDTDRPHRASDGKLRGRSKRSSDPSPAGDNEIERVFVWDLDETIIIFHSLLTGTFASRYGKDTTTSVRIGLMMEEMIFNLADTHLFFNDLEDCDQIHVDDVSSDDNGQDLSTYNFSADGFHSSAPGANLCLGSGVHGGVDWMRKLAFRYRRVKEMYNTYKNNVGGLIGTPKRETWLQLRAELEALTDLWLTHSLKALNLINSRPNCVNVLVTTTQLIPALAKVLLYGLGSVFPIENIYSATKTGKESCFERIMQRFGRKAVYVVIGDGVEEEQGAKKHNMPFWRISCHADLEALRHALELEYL
Target sequence (Q15475 whole entry, looked up): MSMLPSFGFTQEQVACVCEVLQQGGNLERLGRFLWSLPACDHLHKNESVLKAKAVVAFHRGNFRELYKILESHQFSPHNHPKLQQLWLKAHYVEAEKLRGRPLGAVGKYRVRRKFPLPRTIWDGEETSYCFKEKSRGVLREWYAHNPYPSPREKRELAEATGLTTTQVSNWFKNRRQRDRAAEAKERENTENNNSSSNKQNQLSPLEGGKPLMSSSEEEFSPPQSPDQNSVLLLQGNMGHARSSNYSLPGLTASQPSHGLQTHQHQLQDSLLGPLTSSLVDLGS
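Six1/Eya2 binding was read as AlphaScreen signal after compounds were pinned into GST-Six1 plus His-tagged Eya2 (5X stock 250/500 nM) in pH 8.0 Tris/NaCl/TCEP buffer, beads added, then incubated 1 h, 37 C, dark.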
TRPML1 blocker: qHTS for Inhibitors of the Human Mucolipin Transient Receptor Potential 1 (TRPML1). AID 624415, 2012. TRPML1-inducible cells, Ca2+ dye fluorescence, FDSS; stronger effect = lower value; inhibition of EC80 agonist-evoked calcium signal. hit rate 0.02% among 390,000. activity change, negative = inhibition, % (no concentration beside the values); in the data active means activity change below about -50%; inconclusive means about -30% to -50%; inactive means above about -30%;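 also: stimulus is agonist 54-4 at its EC80 concentration; % is scaled to controls: 0 for no effect and ±100 for the full control effect; compound concentration not given in the record; the text of the record puts the active cut at -80%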
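Calcium fluorescence in TRPML1-DL cells induced overnight with Tet: a 110 s read after compound pin addition, then a 110 s antagonist read after challenge with 54-4 at 4 uM final (EC80).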
PINK1 modulator: A Quantitative High throughput Screen to Identify Chemical Modulators of PINK1 Expression; PINK1 immunofluorescence, high-content cytometry, 24 h; Potency, µM (series often up to 76.6 µM), inactives show top-dose activation (PINK1 increase), hits mostly activators; hit rate 0.2% among 410,000; AID 624263, 2012; active = well fitted activation curve with a large enough effect; inconclusive = small, poorly fitted or top-dose-only effect; inactive = flat fitted curve, though single readings scatter; cell line not stated here;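 also: potency is read from the fitted curve at half-maximal effect; % of control where 0% means no effect; nearly all actives have a fitted effect of over 65% in size; a mitochondrial uncoupler was the plate control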
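PINK1 protein, normally rapidly degraded, was detected by immunofluorescence after 24 hour compound treatment of a stable cell line. Titration data (5 concentrations) came from laser-scanning cytometry, with CCCP-treated wells as controls.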
TRPML1 agonist: qHTS for Agonists of the Human Mucolipin Transient Receptor Potential 1 (TRPML1). Mucolipin-1 (Homo sapiens), Q9GZU1. activation, % (no concentration beside the values). hit rate 0.12% among 410,000. TRPML1-expressing cells, Ca2+ dye fluorescence, FDSS; host cell line not named in the record; reference of the full effect not given here; in the data active = activation above about 50%; inconclusive = about 30% to 50%; inactive = below about 30%; also: 0% is about no effect; the text of the record puts the active cut at 80%
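TRPML1-DL cells, Tet-induced overnight (~16 h, 37 degrees C), loaded 45-90 min at room temperature with Ca8 no-wash calcium dye plus quencher. FDSS fluorescence: 10 s baseline, compound pin-transfer, 110 s agonist read, then EC80 54-4 (4uM final) and 110 s antagonist read.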
Starred values were filed as active, the others as inactive; ? = inconclusive; . = no result given; & = joins results of further samples; [ ] = remark or other dose.

SMILES	D2 ag	CtBP-E1A inh	Six1-Eya2 inh	TRPML1 blocker	PINK1 modulator	TRPML1 agonist
NC(=O)Nc1ccc(C(=O)OCC(=O)N(Cc2ccccc2)C2CCS(=O)(=O)C2)cc1 (stereo not drawn)	-0.6	-8	1	25	0.4%	-0.7
CCC(C)C(NC(=O)C1CCC(=O)N1C(=O)OCc1ccccc1)C(=O)NC(C(=O)N1CCCC1C(N)=O)C(C)CC (stereo not drawn)	0.0	-9	-2	37	1.4%	-0.4
Cc1ccc(NC(=O)C2CC(=O)Nc3nncn32)cc1 (stereo not drawn)	-4.9	.	6	25	0.7%	0.1
O=C(COc1ccccc1)Nc1ccc(S(=O)(=O)Nc2ncccn2)cc1	-1.3	6	8	-1	-0.1%	0.2
Cc1cccc(CN2C(=O)c3ccccc3Sc3ccc(C(=O)N4CCCC4)cc32)c1	.	.	.	-1	-0.2%	2.1
CN(C)CCCCCN(C)Cc1cc2ccccc2o1	-5.4	11	4	-8	-0.9%	1.9
COc1ccccc1NC(=O)CSc1nnc(C2CCCCC2)o1	-1.9	2	4	-2	1.9%	0.8
O=C(Nc1nc2ccccc2[nH]1)c1cccc(Br)c1	5.2	-1	-7	8	13%	-0.1
O=C(NCC1CCCN(C(=O)c2cccc(C(F)(F)F)c2)C1)c1ccc(F)cc1 (stereo not drawn)	-1.8	3	1	0	0.7%	-1.0
N/C(=N\OC(=O)CC1CCCCC1)c1cccc(Br)c1	8.0	-9	11	2	6.9%	0.2
CN1CCN(c2ccc(Cl)cc2NC(=O)c2nn(-c3ccccc3)c(=O)c3ccccc23)CC1	-2.8	0	2	10	2.6%	1.1
COCC(C)n1c(C)cc(C(=O)COC(=O)/C=C/c2cccc(F)c2)c1C (stereo not drawn)	2.4	-23	-23	10	-0.6%	-0.5
Cc1cc(S(=O)(=O)N2CCN(Cc3ccccc3)CC2)c(C)s1	1.7	1	2	20	0.6%	1.6
CN1CCN(C(=S)NC(=O)c2ccccc2Cl)CC1	-1.8	-3	7	10	0.7%	0.0
Cn1c(C(=O)NCCN2CCCCCC2)cc2c(=O)n(C)c3ccccc3c21	0.3	-13	-14	1	18%	1.8
c1cncc(-c2nc(NCC3COc4ccccc4O3)c3ccccc3n2)c1 (stereo not drawn)	1.7	?	?	3	3.9%	1.2
COc1cc(/C=N\NC(=O)c2cccnc2)ccc1OC(=O)c1ccccc1Cl	-2.1	2	-4	2	0.8%	1.9
Cn1c(=O)c(=O)n(C)c2cc(S(=O)(=O)N3CCCC3C(=O)Nc3cccc(F)c3)ccc21 (stereo not drawn)	.	.	.	23	4.4%	-0.2
CC(C)=NOCC(=O)Nn1c(COc2ccccc2)nc2ccccc2c1=O	-1.0	.	41	.	0.1%	.
CCn1cc(C(=O)NCc2ccccc2Cl)c(=O)c2cc(S(=O)(=O)N3CCCCC3)ccc21	.	.	.	9	1.3%	-0.5
O=C(Oc1c(-c2ccccc2)c(=O)n2c3c(cccc13)CC2)c1ccco1	4.1	2	2	7	-1.3%	3.3
Cc1cc(NC(=O)CSc2nnc(-c3cccs3)n2N)no1	-1.7	0	0	15	0.0%	-0.3
O=C(CCc1nc2ccccc2c(=O)[nH]1)NNC(=O)COc1cccc(F)c1	-6.2	.	-6	-7	0.0%	0.0
CC1(C)Cc2c(sc(NC(=O)C(C)(C)C)c2C#N)C(C)(C)N1	-12	0	18	2	-0.9%	-0.5
O=C(c1ccc(-n2c(SCc3cc(F)ccc3F)nc3ccccc3c2=O)cc1)N1CCOCC1	1.5	18	4	-10	?	0.9
CCCCn1c(SCc2cccc([N+](=O)[O-])c2)nc2ccsc2c1=O	-3.0	-3	-20	8	-0.3%	-1.0
COc1ccc(CCNC(=O)c2c(C)oc3ncn(C)c(=O)c23)c(OC)c1	.	.	.	-4	-0.1%	-0.1
O=C(CSc1ccc(-c2cccnc2)nn1)N1CCCCC1	-0.9	0	-2	-10	-0.3%	-0.6
CN(C)c1ccc(/C=C2\CCCCC2=O)cc1	-4.7	3	-3	10	2.6%	0.7&-0.1
CCOC(=O)C(C(=O)OCC)C(c1ccccc1)N1CCN(c2ccccc2)CC1 (stereo not drawn)	3.1	10	4	-9	-0.4%	-1.2
Clc1ccc(C(c2nnnn2CCc2ccccc2)N2CCSCC2)cc1 (stereo not drawn)	-5.1	-2	-3	-3	-1.1%	5.9
COC(=O)c1n[nH]n(-c2cc(Cl)cc(Cl)c2)c1=O	-3.7	13	9	-8	-1.4%	-0.5
Nc1c(C(=O)N2CCOCC2)sc(=S)n1-c1ccccc1	-0.7	1	-3	-2	6.9%[38.3 µM]	-0.6
CC(=O)c1ccc(S(=O)(=O)N2CCC(C(=O)Nc3ncc(C)s3)CC2)cc1	-0.8	5	1	23	0.3%	-0.6
COc1ccc(OCC(=O)N2CCN(c3cccc(Cl)c3)CC2)cc1	-1.8	-2	-1	-6	-1.4%	-0.2
O=C(C1CCN(S(=O)(=O)c2cccs2)CC1)N1CCCCCC1	0.1	3	-2	38	0.0%[38.3 µM]	-0.2
CCc1ccccc1-n1c(SCC(=O)NC)nnc1-c1cccnc1	-1.6	4	6	8	0.3%[38.3 µM]	-0.3
COc1cc2c(=O)c(C(=O)c3ccc(C)c(C)c3)cn(Cc3ccccc3F)c2cc1OC	.	.	.	-21	2.0%	1.9
O=[N+]([O-])c1ccc(CNc2ccc(Cl)cc2)s1	11	-6	-3	19	1.4%	0.2
CC(C)(C)c1ccc(C(=O)N2CCC2(C)C(=O)NS(=O)(=O)c2ccc(C#N)cc2)cc1 (stereo not drawn)	-2.2	-12	-12	.	0.1%	-0.6

Structures above containing a tert-butyl group, in the order listed:
SMILES	D2 ag	CtBP-E1A inh	Six1-Eya2 inh	TRPML1 blocker	PINK1 modulator	TRPML1 agonist
CC1(C)Cc2c(sc(NC(=O)C(C)(C)C)c2C#N)C(C)(C)N1	-12	0	18	2	-0.9%	-0.5
CC(C)(C)c1ccc(C(=O)N2CCC2(C)C(=O)NS(=O)(=O)c2ccc(C#N)cc2)cc1 (stereo not drawn)	-2.2	-12	-12	.	0.1%	-0.6

Going on with the list.
SMILES	D2 ag	CtBP-E1A inh	Six1-Eya2 inh	TRPML1 blocker	PINK1 modulator	TRPML1 agonist
Cc1nc2ccccn2c1C(=O)NN=C1C2CC3CC(C2)CC1C3	0.7	-1	-5	1	5.3%	-0.7
Cc1ccc(S(=O)(=O)Nc2nsc(N)n2)cc1	1.1	-5	1	41	1.8%	0.0
CCCOc1ccc(C(=O)Nc2ccc(N3CCN(C(=O)c4ccco4)CC3)cc2)cc1	4.7	11	4	14	5.0%	-0.9
COc1ccc(C(C(=O)NCc2ccccc2)N(Cc2ccco2)C(=O)c2snc(C(N)=O)c2N)cc1OC (stereo not drawn)	11	-5	-21	-7	3.6%	-0.5
CC1(C)CC(=O)C(C2c3ccccc3Oc3ccccc32)C(=O)C1	-2.5	1	5	3	0.4%	-0.1
COCc1cc(C)nc(OCC(=O)N/N=C/c2ccccc2O)c1C#N	-1.8	-84*	-91*	23	-0.8%	1.8
C=CC[C@H](CC(=O)NCCO)C(=O)N[C@@H](C)COC(=O)[C@@H](CC=C)CC(=O)OC(C)(C)C	-3.7	.	-3	8	0.5%	-0.4
CN(C)CCNC(=O)c1c(CSc2ccc(Cl)cc2)noc1C(=O)NCc1ccccc1	-1.4	7	-9	3	0.3%	-0.3
COC(=O)CSc1nnc(C)c(=O)[nH]1	-0.5	6	-1	6	1.2%	0.3
O=C(O)CSc1ccc2ccccc2n1	-0.5	6	-1	18	2.2%	-0.7
CCC/C(O)=C1\C(=O)CC(C)(C)CC1=Nc1ccc(OC)cc1OC	-4.7	-12	-19	31	9.1%	2.3
CC(=O)c1c(C)[nH]c(C(=O)OCC(=O)N(CC(C)C)C2CCS(=O)(=O)C2)c1C (stereo not drawn)	1.6	5	3	10	0.9%	0.1
Cc1cc(C)c[n+](C[n+]2cc(C)cc(C)c2)c1	-3.7	3	6	9	-0.3%	-0.6
COc1cc(C(=O)OCC(=O)NCCN2C(=O)CSC2=O)ccc1OCc1c(C)noc1C	1.8	-1	-9	14	2.2%	0.6
CCOC(=O)N1CCN(S(=O)(=O)c2ccc(Br)s2)CC1	2.1	-1	-1	43	-0.3%	0.6
COC(=O)[C@@H](N)Cc1ccc(O)c(O)c1	-7.8	8	7	-11	-1.2%	-0.3
CCc1ccc(-n2c(SCC(=O)Nc3ccc(C(=O)O)cc3)nnc2-c2ccncc2)cc1	-2.2	-6	3	-9	-1.6%	0.1
CC(=O)c1ccc(S(=O)(=O)N(C)CC(=O)NCc2ccco2)cc1	1.9	8	-23	6	-0.7%	0.0
C[C@@H](OC(=O)N(C)Cc1ccccc1)[C@H]1O[C@]2(C)CCCC[C@H]1O2	-3.1	21	14	-4	4.1%	-1.4
CCOc1ccc(S(=O)(=O)N2CCCC(C(=O)N3CCN(c4ccccc4)CC3)C2)cc1 (stereo not drawn)	-1.3	-3	-10	15	0.4%	0.9
NC(=O)c1sc(=S)n2c1[nH]c(=O)c1sccc12	-2.8	-82*	?	-1	1.1%	3.2
CCOC(=O)c1c2c(n(C)c1C)C(=O)C(=O)c1ccc(Br)cc1-2	13	12	5	-15	-0.2%	0.1
C=CCc1cccc(CNc2ccc(S(=O)(=O)Nc3nccnc3OC)cc2)c1O	-4.0	0	-15	-8	1.5%	0.1
Cc1nccn1CC(O)COc1ccc([N+](=O)[O-])cc1 (stereo not drawn)	-0.3	-1	6	-1	4.3%	0.6
CCC(C)(C)n1nnnc1CN(Cc1cc2cc(OC)c(OC)cc2[nH]c1=O)C1CCCC1	-4.0	-1	2	-3	0.7%	-0.7
COc1cccc2c1Oc1ncccc1N(C(=O)CCC(=O)NCc1ccc(F)cc1)C2	-3.9	.	4	12	0.1%	1.7
COc1ccc(C(=O)/C=C(\N)C(F)(F)F)c(O)c1	-1.7	42	22	1	?	0.0
O=C(CCN1C(=O)C2C3C=CC(C3)C2C1=O)Nc1c(F)cccc1F (stereo not drawn)	-1.4	-9	9	-8	-3.3%	1.0
Cc1ccc(S(=O)(=O)N2CCN(C(=O)COC(=O)/C=C/c3cccc([N+](=O)[O-])c3)CC2)c(C)c1	-1.5	-17	5	0	-0.8%	-0.5

Compound profiles, as listed above. Values in the order: D2 ag, CtBP-E1A inh, Six1-Eya2 inh, TRPML1 blocker, PINK1 modulator, TRPML1 agonist
Results for COCC(C)n1c(C)cc(C(=O)COC(=O)/C=C/c2cccc(F)c2)c1C (stereo not drawn) = 2.4, -23, -23, 10, -0.6%, -0.5
Results for CCC/C(O)=C1\C(=O)CC(C)(C)CC1=Nc1ccc(OC)cc1OC = -4.7, -12, -19, 31, 9.1%, 2.3
Results for Cn1c(C(=O)NCCN2CCCCCC2)cc2c(=O)n(C)c3ccccc3c21 = 0.3, -13, -14, 1, 18%, 1.8

High-throughput results: PubChem, National Center for Advancing Translational Sciences (NCATS)
